2A Renilla = FMDV 2A StopGo reporter, Renilla signal. HEK cells with a luciferase reporter of 2A StopGo recoding. Potency, µM (top dose mostly 57.5 µM), inactives show at the highest dose signal change, negative = less light. 120,000 compounds, 0.32% hits. AID 1745857; active means well fitted falling curve with a large enough effect; inconclusive means small, poorly fitted or top-dose-only effect; inactive means no such curve, though single readings can be large or run the other way; further: nearly all actives have a fitted effect of over 55% in size; overnight with compound
2A firefly = lowers the firefly signal of an FMDV 2A StopGo reporter | HEK cells with a luciferase reporter of 2A StopGo recoding | Potency, µM (highest dose often 57.5 µM), for the others: at the top dose signal change, negative = less light | 120,000 compounds, 0.23% hits | AID 1745856; active = well fitted falling curve with a large enough effect; inconclusive = small, poorly fitted or top-dose-only effect; inactive = no such curve, though single readings can be large or run the other way; further: nearly all actives have a fitted effect of over 60% in size; overnight with compound
An asterisk follows results filed as active; ? = inconclusive; [ ] = dose if it differs, or a comment. On the % scale 0 is the no-effect control and ±100 the full control effect; potency means the concentration at half of the fitted maximal effect. A portion of the library; count on the stated rates, not on these rows.

Below each SMILES – 2A Renilla	2A firefly
- Cc1ccc(-n2c(/C=C/c3ccccc3)nc3ccccc3c2=O)cc1Cl
→ 7%	?
- COc1ccc(Cl)cc1C(=O)NCc1nc(-c2cccc(C)c2)no1
→ -2%	35%[activator]
- O=C(NCc1ccc(F)cc1)c1cc(-c2ccc(Cl)cc2)n[nH]1
→ 25%	40%[activator]
- Cc1ccc(C(=O)Nc2cccc(-c3nc4cccnc4s3)c2C)cc1
→ -5%	0%
- O=S(=O)(c1ccccc1)N1N=C(c2ccc(Cl)cc2)CC1c1ccc2nccnc2c1 (stereo not given)
→ 23%	133%[activator]
- CCN(CC)c1ccc(C=Nc2c(C)cc(C)cc2C)cc1
→ -2%	0%
- CCc1ccc(OCc2nnc(SCc3ccc(F)cc3Cl)n2CC(C)C)cc1
→ 57%[activator]	-6%
- CCc1nn2c(=O)cc(CN(CC)CC)nc2s1
→ -8%	-9%
- Cc1ccc(S(=O)(=O)N(CC(=O)Nc2c(C)cccc2C)c2cccc(Cl)c2)cc1
→ 70%[activator]	?
- O=S(=O)(c1ccccc1F)N1CCC(Oc2ccc(-n3cnnn3)cc2)CC1
→ ?	?

Random excerpt: three records from the list, in no set order.
Below each SMILES – 2A Renilla	2A firefly
- CCc1nn2c(=O)cc(CN(CC)CC)nc2s1
→ -8%	-9%
- CCc1ccc(OCc2nnc(SCc3ccc(F)cc3Cl)n2CC(C)C)cc1
→ 57%[activator]	-6%
- Cc1ccc(S(=O)(=O)N(CC(=O)Nc2c(C)cccc2C)c2cccc(Cl)c2)cc1
→ 70%[activator]	?

Carrying on.
molecule,2A Renilla,2A firefly
CC(C)NC(=O)C1CCN(Cc2nc(-c3ccccc3)no2)CC1,3%,14%
CC(C)OC(=O)c1cc(-c2ccccc2)nc2ccccc12,5%,14%
COC(=O)c1cc(NC(=O)c2ccc3c(c2)NC(=O)c2ccccc2S3)cc(C(=O)OC)c1,-9%,-16%
CCCNC(=O)c1cnc2c(-c3ccc(OCC)c(OCC)c3)c(C)nn2c1-c1ccccc1,-6%,-9%
O=C(Nc1c(C(=O)N2CCN(c3ccc(F)cc3)CC2)oc2ccccc12)c1c(F)cccc1F,150%[activator],6%
COc1ccc(NC(=O)c2c(-n3cnnn3)sc(C)c2C)cc1Cl,13%,-20%
C[C@@H](O)[C@H](Nc1ncnc2sc3c(c12)CCCC3)C(=O)O,-4%,0%

Entries listed so far that have fluorine (4):
molecule,2A Renilla,2A firefly
O=C(NCc1ccc(F)cc1)c1cc(-c2ccc(Cl)cc2)n[nH]1,25%,40%[activator]
CCc1ccc(OCc2nnc(SCc3ccc(F)cc3Cl)n2CC(C)C)cc1,57%[activator],-6%
O=S(=O)(c1ccccc1F)N1CCC(Oc2ccc(-n3cnnn3)cc2)CC1,?,?
O=C(Nc1c(C(=O)N2CCN(c3ccc(F)cc3)CC2)oc2ccccc12)c1c(F)cccc1F,150%[activator],6%

Single records (already shown). Order of values: 2A Renilla | 2A firefly
Entry for C[C@@H](O)[C@H](Nc1ncnc2sc3c(c12)CCCC3)C(=O)O → -4% | 0%
Entry for CC(C)NC(=O)C1CCN(Cc2nc(-c3ccccc3)no2)CC1 → 3% | 14%

Source: PubChem (National Center for Advancing Translational Sciences (NCATS))
